MT1-MMP act inh = blockers of MT1-MMP proenzyme processing, primary screen, HT1080 RFP-PRO-GFP cells, GFP/RFP fluorescence; GFP/RFP ratio change, % at 20 µM; 360,000 compounds, 0.061% hits; Matrix metalloproteinase-14 (Homo sapiens), P50281; GFP/RFP ratio fluorescence, overnight; percent of plate control window, DMSO zero;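 active = GFP/RFP ratio change of at least 30% with cell ATP level not reduced by more than half and red fluorescence within 50% of control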; note: strong numbers were not always called active
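system = RFP-PRO-GFP reporter HT1080 cells | dosing = 20 µM single dose, 1% DMSO | timing = overnight cell settling, then overnight compound exposure, 37 °C, 5% CO2 | read-out basis = GFP/RFP fluorescence ratio | controls = DMSO and RFP-L50D-GFP cell wells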
eIF4H FP inh = human eIF4H binding inhibitors, primary screen, translation initiation inhibitor project, biochemical, uHTS, fluorescence polarization; 290,000 compounds, 0.94% hits; inhibition, % at 35 µM; eIF4H fluorescence polarization binding assay; AID 2012, 2009; Eukaryotic translation initiation factor 4H (Homo sapiens), Q15056;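 active = 50% or more with normal probe brightness, or confirmed in later tests; inconclusive = above 50% with abnormal brightness, or retests that disagree; inactive = below 50% or failed in later tests; about a fifth of its hits are not listed in these tables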;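 note: calls also rest on retests at 20 µM and on dose response follow-up; 0% = protein and probe with vehicle and 100% = probe without protein; strong numbers were not always called active; many hits fall short of the cut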
UUG fidelity = modulators of yeast start codon fidelity, primary screen, whole organism, S. cerevisiae, single point, plate reader; S. cerevisiae UUG-firefly luciferase reporter, luminescence/redox ratio; activity score, % at 18.7 µM; 350,000 compounds, 0.13% hits; AID 602363, 2012;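 active = replicate mean at a twofold rise or more, about +100% in these data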;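 note: firefly luciferase made from a UUG start codon reports start codon fidelity; reporter light over untreated wells divided by growth signal over untreated wells; some hits fall short of that in this replicate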
HIV Env fusion = inhibitors of HIV-1 Env-driven cell-cell fusion, primary screen, HeLa-JRFL effector, CEM21 target cells, luciferase | inhibition, % at 12.3 µM | 360,000 compounds, 1.1% hits | AID 651610, 2012;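 active = mean replicate inhibition score of at least 50 and every replicate individually at or above 50; inconclusive = only one of the two criteria met; inactive = mean below 50 and not all replicates reaching 50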;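 note: 0% = plate neutral controls and 100% = maraviroc near 300 nM; one replicate is shown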
Rce1 inhib = yeast Rce1p protease inhibitors, primary screen, biochemical, fluorescence, cell-free homogeneous; CAAX prenyl protease 2 (Saccharomyces cerevisiae (strain ATCC 204508 / S288c)), Q03530; yeast membranes, quenched prenylated peptide cleavage fluorescence; calls only; 290,000 compounds, 0.27% hits;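 active = fall in fluorescence gain of 50% or more versus controls, with final raw signal at or below 3038400; inconclusive = same 50% fall but final raw signal above 3038400; inactive = fall in fluorescence gain under 50%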;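 note: plate controls were neutral control wells for no effect and wells lacking membranes for full effect; tested at 10 µM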
CSC inhib = cancer stem cell viability inhibitors, primary screen, luminescence | cancer stem cell-like cells viability | inhibition, % at 7.5 µM | 300,000 compounds, 1.1% hits | AID 2717, 2010;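 active = mean at 75% or more and at least half the replicates too; inconclusive = mean and replicates disagree; tested in HMLE shEcad cells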;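 note: 0% = median of negative and 100% = median of positive control wells; the first replicate is given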
PABP polyA inh = PABP poly(A) RNA binding inhibitors, primary screen, biochemical, fluorescence polarization, uHTS; inhibition, % at 35 µM; 290,000 compounds, 1% hits; AID 2014, 2009; Polyadenylate-binding protein 1 (Homo sapiens), P11940;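 active = 50% or more with normal probe brightness, or confirmed in later tests; inconclusive = above 50% with abnormal brightness, or retests that disagree; inactive = below 50% or failed in later tests; about a fifth of its hits are not listed in these tables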;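 note: calls also rest on retests at 20 µM and on dose response follow-up; controls were probe without protein and protein plus probe with vehicle; some compounds called inactive have numbers as strong as hits; many hits fall short of the cut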
Target sequence (P11940 whole entry, looked up): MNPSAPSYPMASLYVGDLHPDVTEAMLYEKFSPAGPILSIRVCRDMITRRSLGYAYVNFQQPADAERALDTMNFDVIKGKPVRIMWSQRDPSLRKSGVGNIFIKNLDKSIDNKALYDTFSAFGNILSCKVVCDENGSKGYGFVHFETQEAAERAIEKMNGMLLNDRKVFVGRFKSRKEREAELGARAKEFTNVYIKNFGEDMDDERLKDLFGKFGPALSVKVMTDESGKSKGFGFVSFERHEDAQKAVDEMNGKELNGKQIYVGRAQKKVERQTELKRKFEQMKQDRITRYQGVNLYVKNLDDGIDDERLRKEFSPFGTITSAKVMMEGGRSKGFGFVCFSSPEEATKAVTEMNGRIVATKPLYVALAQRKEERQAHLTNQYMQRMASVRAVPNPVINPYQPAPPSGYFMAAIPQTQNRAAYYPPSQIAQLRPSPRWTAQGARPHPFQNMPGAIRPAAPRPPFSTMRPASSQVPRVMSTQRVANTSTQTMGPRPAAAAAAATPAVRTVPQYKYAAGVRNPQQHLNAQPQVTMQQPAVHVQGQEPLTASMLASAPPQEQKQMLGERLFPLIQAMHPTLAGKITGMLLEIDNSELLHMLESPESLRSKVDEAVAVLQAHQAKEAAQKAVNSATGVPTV
eIF4H FP inh retest = recorded beside eIF4H FP inh, whose call it bears; inhibition, %; compound at 20 µM; confirmation average;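 mean of two retest wells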
PABP polyA inh retest = second read-out of PABP polyA inh, no call of its own (marks repeat the call); inhibition, %; compound at 20 µM; confirmation repeats;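 mean of two retest wells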
MT1-MMP act inh RFP = further read-out of MT1-MMP act inh, marked with its call; RFP signal change, %; measured here: RFP expression control read;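 0 = vehicle wells; hits needed this value within 50% of zero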
An asterisk follows results filed as active; i = inactive; ? = inconclusive; / = not tested or not shown.

SMILES	MT1-MMP act inh	MT1-MMP act inh RFP	eIF4H FP inh	UUG fidelity	HIV Env fusion	Rce1 inhib	CSC inhib	PABP polyA inh	others
CC(C)CNC(=O)c1nc(-c2ccccc2)n(-c2ccccc2)n1	3	3	-7	-9	/	i	-6	-3
CCc1c(C)sc(NC(=O)c2cnn3cccnc23)c1C#N	0	-1	-16	10	3	i	7	1
Cc1ccc(S(=O)(=O)N2CCCC(C(=O)NCCCN3CCCCC3C)C2)cc1 (stereo not given)	3	4	2	-6	21	i	15	2
COc1ccccc1OC1OC2COC(c3ccco3)OC2C(O)C1NC(C)=O (stereo not given)	1	8	-11	/	4	i	-6	4
COc1cccc(CN2CCC(C(=O)N3CCN(c4ccccc4F)CC3)CC2)c1	14	6	61*	-9	-29	i	8	9	eIF4H FP inh retest=74*;PABP polyA inh retest=36
Cc1ccc(C(=O)COc2ccc3ccc(=O)oc3c2)cc1	2	-3	-1	/	-6	i	-32	1
CCNC(=O)NC(=O)COC(=O)c1cccc(S(=O)(=O)N2CC3(C)CC2CC(C)(C)C3)c1 (stereo not given)	1	-2	/	/	4	i	-9	/
O=C(NCc1cccs1)Nc1ccc(Cl)cc1	3	-4	4	-19	/	i	8	-3
Cc1ccc(S(=O)(=O)NCCC(=O)N2CCCCCC2)cc1	0	-1	/	/	/	i	-7	/
O=C(NCCCn1ccnc1)C(=O)NCC1OCCN1S(=O)(=O)c1cc(F)ccc1F (stereo not given)	10	8	86*	-17	-23	i	-8	58*
COc1ccc(S(=O)(=O)N2CCN(C(=O)Nc3ccccc3OC)CC2)cc1	-2	-1	5	-10	-22	i	21	-2
NC(=O)CC(NC(=O)Cc1cccc2ccccc12)c1ccc(NC2CCCCC2)c([N+](=O)[O-])c1 (stereo not given)	4	0	11	-30	23	i	?	8
CCOc1ccc(CCNC(=O)C2CCN(S(=O)(=O)N3CCC(C)CC3)CC2)cc1OCC	3	2	8	-9	22	i	-11	8
O=C(NCCN1CCCCCC1)c1ccc(CS(=O)(=O)c2ccc(Br)cc2)o1	0	6	-6	-10	/	i	14	-29
N#Cc1nn(-c2ccccc2)nc1N1CCCCC1	1	2	-4	-33	/	i	/	-1
Nn1c(SCC(=O)NC(=O)NCc2ccco2)nnc1-c1ccc(OC(F)F)cc1	4	-3	98	-19	/	i	-6	39	eIF4H FP inh retest=-13;PABP polyA inh retest=11
CCOCC(=O)Nc1cc(C(=O)NCCC(C)C)ccc1Cl	/	/	7	/	/	i	-13	3
CCN(CC)C(=O)c1ccccc1NC(=O)c1ccccc1	-2	0	-2	2	22	i	-7	0
O=C(CSc1nnnn1C1CCCCC1)N1CCCC1	-5	2	-7	-12	/	i	-6	-10
CN(C)CCCn1c(SCC(=O)Nc2nccs2)nnc1-c1ccncc1	-1	3	6	-30	16	i	1	7
CC1(C)CC(NC(=O)Cc2ccccc2[N+](=O)[O-])CC(C)(C)N1	6	6	-10	/	0	i	3	-24
Cc1ccccc1NC(=O)C1CCCN1S(=O)(=O)c1ccc2c(c1)n(C)c(=O)c(=O)n2C (stereo not given)	-2	5	-6	2	-34	i	13	7
C/C(N)=C(/C#N)C(=O)COC(=O)C1CSC2(c3ccc(F)cc3)CCC(=O)N12 (stereo not given)	-3	-1	9	6	7	i	/	10
COc1ccc(-c2[nH]ncc2-c2cnc(C)s2)c(O)c1	0	4	-1	-24	/	i	2	0
COc1cccc(NC2=C(Cl)C(=O)OC2OC(=O)c2ccco2)c1 (stereo not given)	-7	-3	-1	/	29	i	9	2
CCOc1ccccc1NC(=O)COC(=O)CSc1ccc(Cl)cc1	4	8	-9	/	-14	i	-8	-4
O=C(NC1CCCCCCC1)c1ccc(Br)cc1	3	-1	/	0	-56	i	-6	/
COc1ccccc1NC(=O)CSc1ccc2nnc(-c3ccc(C)cc3)n2n1	-2	-5	-9	-12	11	i	1	-5
NC(=O)CC(NC(=O)c1cccc(Br)c1)c1ccc(N2CCC(N3CCCCC3)CC2)c([N+](=O)[O-])c1 (stereo not given)	1	1	-5	-16	-7	i	-1	-10
C=CCNC(=S)Nc1sc2c(c1C(=O)OCC)CC(C)(CC)OC2 (stereo not given)	1	2	-9	/	17	i	43	-7
COc1cccc(N2CCN(C(=O)c3ccc4nc(N5CCC(C)CC5)sc4c3)CC2)c1	/	/	-6	/	-61	i	34	-12
Cc1cc(C)c(NC(=O)Nc2ccccc2C)c(Cl)c1	1	1	4	/	0	i	4	7
CCN(CC)S(=O)(=O)c1ccc2c(c1)NC(=O)C1CCCN21 (stereo not given)	2	1	2	-9	6	i	-13	5
COc1ccc(C2c3ccc4ccccc4c3Oc3ncn4nc(Cc5ccccc5)nc4c32)cc1OC (stereo not given)	4	-1	-3	/	20	i	10	4
O=C(CCCNC(=O)/C(=C\c1ccccc1F)NC(=O)c1ccccc1)OCc1ccccc1	-3	-2	-5	-22	4	i	-3	-10
O=C(NCC1CCN(Cc2ccc(F)cc2)CC1)C1CCCN(c2ncnc3c2nc2n3CCCCC2)C1 (stereo not given)	0	-6	-10	-22	18	i	-6	3
CCC1(C)COC2(OC1)C(=O)Nc1ccccc12 (stereo not given)	6	0	-2	3	-13	i	-1	0
Nc1ccc(NC(=O)c2ccco2)c(Cl)c1	-5	3	-3	-11	-4	i	-20	-7
Cc1ccc(CSCC(=O)N(C)CC(=O)Nc2ccccc2Cl)cc1	0	-1	/	/	2	i	7	/
CCC(C)N(C(=O)COC(=O)CSc1ccc(C)c(C)c1)C1CCS(=O)(=O)C1 (stereo not given)	-1	-1	/	-5	/	/	-5	/
O=C(COc1cccc2cccnc12)N1CCc2ccccc21	0	-5	-14	/	-132	i	8	4
CCC(=O)NC1=C(Nc2ccc(N)cc2)C(=O)c2ccccc2C1=O	4	2	8	-9	-39	i	4	10
Cc1ccccc1Nc1c(F)c(F)c(F)c(F)c1C(=O)O	3	6	-3	/	8	i	11	-8
COc1ccc(/C(C)=N/Nc2nc(C)c(C(C)=O)s2)cc1	2	-7	-6	-23	-21	i	8	-18
O=C(c1nn(-c2ccccc2)c(=O)c2ccccc12)N1CCN(c2ncccn2)CC1	-2	-2	-8	/	32	i	5	11
CCOC(=O)c1oc2ccccc2c1CN1CCCCC1	-1	0	3	-16	-6	i	-11	-5
CCOC(=O)c1c(C)nc(SC)c(C#N)c1-c1ccccc1	-4	-1	3	/	-7	i	-2	3
Nc1ncnc2c1ncn2[C@@H]1O[C@H](CNC(=O)[C@@H](N)Cc2ccc(C(=O)c3ccccc3)cc2)[C@@H](O)[C@H]1O	2	2	/	-3	5	/	/	/
CS(=O)(=O)N(CC(N)=O)Cc1ccc(Cl)cc1	1	3	-13	-21	/	i	-18	-2
COc1ccc(Nc2nc(NCCO)nc(OC)n2)cc1	2	5	-5	/	-32	/	-3	-6
Cc1csc(N/N=C/c2ccc([N+](=O)[O-])cc2)n1	-2	-7	-4	-21	-96	i	0	10
COc1cc2c(cc1OC)C(c1cc(C)ccc1C)CC(=O)N2 (stereo not given)	18	-1	-4	-13	-2	i	-7	11
O=C(CSc1nc(-c2ccc(F)cc2)cs1)NCCN1C(=O)CSC1=O	1	-2	-13	/	-11	i	0	-3
CCCCCN1C/C=C\C(c2ccc(OC)cc2)N(Cc2ccc(F)cc2)C(=O)C1 (stereo not given)	-4	0	-5	-5	48	i	-9	-4
CCOCC(=O)Nc1ccc([N+](=O)[O-])cc1C	-4	-3	8	-10	-6	i	-5	14
COC(=O)c1c(C)[nH]c(C(=O)CN2CCOCC2)c1C	6	3	-3	-4	/	i	-13	-4
COc1ccc(/C=N/NC(=O)Nc2cccc3nsnc23)c(OC)c1	-4	-2	4	/	/	i	-19	5
Cn1nc(C(F)(F)F)c2cc(NC(=O)OCC(C)(C)C)sc21	-1	-6	7	-18	-87	i	-8	7
S=c1[nH]nc(CCc2ccc(Cl)cc2)o1	4	2	3	-30	27	i	-5	2
COCCN1CCN(Cc2nc(Cc3ccc(OC)c(OC)c3)no2)CC1	1	-1	-10	9	9	i	-6	-8
The listing continues.
SMILES	MT1-MMP act inh	MT1-MMP act inh RFP	eIF4H FP inh	UUG fidelity	HIV Env fusion	Rce1 inhib	CSC inhib	PABP polyA inh	others
O=C(COc1ccc2ccccc2c1)Nc1cccc2cccnc12	-2	2	-7	-23	-29	i	27	-10
c1ccc2[nH]c(CSc3ncnc4c3oc3ccccc34)nc2c1	-5	-11	-2	9	5	i	/	3
CC(=O)Nc1nnc(CCN2CCCCC2)s1	1	5	-10	-10	-52	i	8	4
OCCC1CN(Cc2ccsc2)CCN1C1CCCC1 (stereo not given)	-4	-2	7	-16	16	i	12	-11
O=C(NCC(F)(F)F)Nc1ncccn1	0	3	-2	0	/	i	-10	-6
COC(=O)c1ccc(COC(=O)CNC(=O)C2CCCCC2)cc1	-1	-4	/	0	-19	/	-18	/
CC(Sc1nnc(-c2ccccc2F)n1C1CC1)C(N)=O (stereo not given)	-3	0	-6	-14	-3	/	-13	12
Cn1nnnc1SCC(=O)NC(C)(C)C	1	3	1	-18	/	i	-1	-3
C/C(=N\NC(N)=S)c1ccc(Cl)s1	0	-1	-12	/	-16	i	-1	-2
Cc1ccc2cccc(CC(=O)NN)c2c1	1	-2	/	7	2	/	/	/
CCN(CC)C(=O)CSc1nc2c(sc(=S)n2Cc2ccco2)c(=O)n1-c1ccccc1	-4	-17	-7	4	-153	i	-5	-14
O=C(NNS(=O)(=O)c1ccccc1)c1cccc(F)c1	3	0	4	-5	4	i	-17	-4
COC(=O)c1cccc(NC(=S)NCc2ccco2)c1	2	-4	1	-7	-34	i	4	4
CCc1nc2ccc(C(=O)Nc3ccc(Cl)c(Cl)c3)cn2c1N(C)Cc1ccc(OC)cc1	0	-7	/	-5	-16	/	/	/
CC(=O)Nc1c(F)cc(Br)cc1F	1	2	-8	-10	9	i	-11	10

Structures listed so far containing a tert-butyl group:
SMILES	MT1-MMP act inh	MT1-MMP act inh RFP	eIF4H FP inh	UUG fidelity	HIV Env fusion	Rce1 inhib	CSC inhib	PABP polyA inh	others
Cn1nc(C(F)(F)F)c2cc(NC(=O)OCC(C)(C)C)sc21	-1	-6	7	-18	-87	i	-8	7
Cn1nnnc1SCC(=O)NC(C)(C)C	1	3	1	-18	/	i	-1	-3

Next entries
SMILES	MT1-MMP act inh	MT1-MMP act inh RFP	eIF4H FP inh	UUG fidelity	HIV Env fusion	Rce1 inhib	CSC inhib	PABP polyA inh	others
Cc1ccc(N(C)C(=O)c2ccc3c(Cl)c4c(nc3c2)CCC4)cc1C	-7	-7	0	-11	-19	i	/	12
O=C1c2cccc(Cl)c2C(=O)N1c1ccccn1	1	6	/	4	-70	i	-7	/
CC(C)(C)Cc1c(-c2ccc(Br)cc2)nc2ccc(Cl)cn12	-5	-5	/	-4	-12	/	/	/
COCCn1c(SCC(=O)N2CCCCC2)nc2c(c1=O)SCC2	0	-3	1	-11	3	i	-2	2
Nc1c(S(=O)(=O)c2ccccc2)cnc2c(-c3ccc(F)cc3)cnn12	-1	3	-2	-18	68*	i	-5	-1

Source: PubChem (several laboratories)
